# Cruzain noTriton – inhibitors of Trypanosoma cruzi cruzain without detergent | Potency, µM, for the others: max response, negative = inhibition, actives largely listed as inhibitors | purified cruzain, Z-FR-AMC fluorescence, no detergent | 2.3% of 200,000 active; active means well fitted curve in the direction sought with a large enough effect; inconclusive means small, poorly fitted or top-dose-only effect, or another doubt; inactive means no such curve, though single readings can be large; an effect the other way counts as inactive or inconclusive;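 further: plate controls were enzyme without inhibitor for no effect and buffer without enzyme for full effect; nearly all actives have a fitted effect of over 40% in size; top concentration of the series not given in the record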
# Target sequence (P25779 123-467 limits assumed): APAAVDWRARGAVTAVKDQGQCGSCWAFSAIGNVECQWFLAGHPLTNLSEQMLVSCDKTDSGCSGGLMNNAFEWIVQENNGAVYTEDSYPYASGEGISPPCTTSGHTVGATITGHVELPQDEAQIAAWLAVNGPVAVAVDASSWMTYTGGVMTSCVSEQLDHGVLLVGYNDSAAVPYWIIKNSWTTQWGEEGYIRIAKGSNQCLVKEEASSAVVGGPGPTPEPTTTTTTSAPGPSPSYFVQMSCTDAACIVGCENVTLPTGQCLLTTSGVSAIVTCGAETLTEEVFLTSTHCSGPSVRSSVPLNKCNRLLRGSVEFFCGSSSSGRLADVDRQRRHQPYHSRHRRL
#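 Purified cruzain at 1.5 nM, pre-incubated 15 min with compound at room temperature in 100 mM sodium acetate pH 5.5, 5 mM DTT, 0.00005% Triton X-100. Reaction started with 2 uM Z-FR-AMC; AMC fluorescence increase over 60 s gives rate.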
# MARV entry inh – blocks Marburg virus binding to or entry into cells | 1.8% of 300,000 active | Marburg virus pseudotyped entry inhibition, cell reporter; control for the full effect not named in the record; about a third of the inactives were read at about 46 µM | Potency, µM (top dose mostly 37.8 µM), inactives show at the top dose activity change, negative = inhibition, actives largely listed as inhibitors; active = well fitted inhibition curve with a large enough effect; inconclusive = small, poorly fitted or top-dose-only effect, or effect the other way; inactive = flat fitted curve, though single readings scatter; tested in HEK293 cells; about a fifth of its hits are not listed in these tables; further: on the % scale 0 is the no-effect control and ±100 the full control effect; luciferase read-out
# RE007 growth inh – less growth of the S. pombe RE007 Vpr strain; Potency, µM (series often up to 92.2 µM), inactives show at the top dose activity change, negative = less growth; S. pombe RE007 Vpr strain, BacTiter-Glo ATP luminescence, 24 h; control for the full effect not named in the record; 0.21% of 360,000 active; active = well fitted falling curve with a large enough effect; inconclusive = small, poorly fitted or top-dose-only effect; inactive = no such curve, though single readings can be large or run the other way;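 further: on the % scale 0 is the no-effect control and ±100 the full control effect; nearly all actives have a fitted effect of over 50% in size; the assay follows cell death caused by Vpr and the record does not say whether a fall means rescue or toxicity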
#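 Fission yeast RE007 carrying one integrated HIV-1 vpr copy, seeded at OD 0.01 in PMG+AL medium with 23 nL pinned compound. Grown 24 h at 30 degrees; viability read by BacTiter-Glo luminescence after 5 min.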
# NS1 function inh – influenza NS1 inhibition | Potency, µM (series often up to 46.1 µM), inactives show at the highest dose activity, positive = more growth | 0.4% of 270,000 active | S. cerevisiae slowed by influenza A NS1, growth recovery by OD600; further: actives are rising curves; nearly all actives have a fitted effect of over 50% in size
#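 In this qHTS, NS1 from influenza A is expressed in budding yeast, where it slows growth. Cells are switched from glucose to 2% galactose medium (pH 6.0, -URA), treated with compound, and growth recovery is read at OD600.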
# StopGo reporter – FMDV 2A StopGo reporter, luciferase signal; human cells with a luciferase reporter of 2A StopGo recoding; control for the full effect not named in the record; Potency, µM (series often up to 57.9 µM), without a hit: at the top dose signal change, negative = less light; 1.2% of 410,000 active; active = well fitted falling curve with a large enough effect; inconclusive = small, poorly fitted or top-dose-only effect; inactive = no such curve, though single readings can be large or run the other way; tested in HEK293T cells; further: on the % scale 0 is the no-effect control and ±100 the full control effect; nearly all actives have a fitted effect of over 45% in size; luciferase light after 4 h
# LASV entry inh – blocks Lassa virus binding to or entry into cells. AID 540256. Potency, µM (top dose mostly 37.9 µM), for inactives: at the highest dose activity change, negative = inhibition, most hits filed as inhibitors. 1.2% of 300,000 active. Lassa virus pseudotype entry inhibition, cell reporter; control for the full effect not named in the record; active means well fitted inhibition curve with a large enough effect; inconclusive means small, poorly fitted or top-dose-only effect, or effect the other way; inactive means flat fitted curve, though single readings scatter; tested in HEK293 cells; further: on the % scale 0 is the no-effect control and ±100 the full control effect; nearly all actives have a fitted effect of over 50% in size; luciferase read-out
# Cruzain inh Det – inhibitors of Trypanosoma cruzi cruzain with detergent; purified cruzain, Z-FR-AMC fluorescence, 0.01% Triton; Potency, µM, inactives show max response, negative = inhibition, usual class: inhibitors; P25779; 0.43% of 200,000 active; active means well fitted curve in the direction sought with a large enough effect; inconclusive means small, poorly fitted or top-dose-only effect, or another doubt; inactive means no such curve, though single readings can be large; an effect the other way counts as inactive or inconclusive;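 further: plate controls were neutral wells for no effect and buffer without enzyme for full effect; nearly all actives have a fitted effect of over 40% in size; top concentration of the series not given in the record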
#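 Steps: dispense cruzain (1.5 nM final) in acetate buffer pH 5.5 with DTT and 0.01% Triton X-100; pin-transfer compounds; incubate 15 min RT; add Z-FR-AMC (2 uM final); read fluorescence every 30 s, using the 60 s intensity change.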
# SARS PLpro yeast – inhibitors of SARS-CoV papain-like protease in yeast | AID 485353 | Potency, µM (series often up to 32.9 µM), for the others: at the highest dose activity, positive = growth rescue | 0.19% of 330,000 active | S. cerevisiae expressing SARS-CoV PLpro, growth rescue; control for the full effect not named in the record; further: 0% is about no effect; nearly all actives have a fitted effect of over 55% in size; growth read by luminescence after 48 h
# * hit, by the source's call; ? = inconclusive; · = not tested or not shown; & = joins results of further samples; [ ] = another dose, or the depositor's remark. Unless noted, the call rests on the fitted dose curve; in most records, active means well fitted rising curve with a large enough effect; inconclusive means small, poorly fitted or top-dose-only effect; inactive means no such curve, though single readings can be large or run the other way. Potency means the concentration at half of the fitted maximal effect.
SMILES,Cruzain noTriton,MARV entry inh,RE007 growth inh,NS1 function inh,StopGo reporter,LASV entry inh,Cruzain inh Det,SARS PLpro yeast
CC(SC1=NCCN1S(C)(=O)=O)c1ccccc1 (stereo not given),·,·,2%,-5%,-24%,·,·,-4%
Cc1ccc(N(CC(=O)N2CCCCC2)S(=O)(=O)c2ccc(C)cc2)cc1,·,-23%[46.1 µM],15%,-3%,51%[activator],?,·,-1%
CC(C)(C)OC(=O)N1CCC[C@H]1c1nnc(SCc2ccc(Cl)cc2)o1,·,?,-3%,1%,-25%,?,·,-3%
COc1cc(/C=N/NC(=S)Nc2cccnc2)cc(OC)c1OC,·,-4%[46.1 µM],6%,17%,-22%,26%,·,1%
CCCn1c(=N)c(C#N)cc2c(=O)n3ccccc3nc21,?,-1%,-13%,-9%,10%,-11%,-28%,-13%
N#CC(c1ccccc1F)(c1ncc(C(F)(F)F)cc1Cl)N1CCOCC1 (stereo not given),1%,2%,-4%,4%,1%,9%,0.6%,5%
O=C(NC1CCS(=O)(=O)C1)c1cc(-c2ccccc2)nc2ccccc12 (stereo not given),·,-27%[14.2 µM],-3%,·,-20%,9%,·,2%
CC(C)(C)c1ccc(OCCON2C(=O)CCC2=O)c(Cl)c1,?,20%,-1%,-6%,18%,-8%,-2.3%,-2%
c1ccc2c(NC3=NCCCCS3)cccc2c1,5%,9%[46.1 µM],-5%,4%,12%,7%,-0.3%,14%
COc1ccccc1/C=C/C(=O)Nc1cccc(S(=O)(=O)N2CCOCC2)c1,·,-8%,4%,·,-7%,2%,·,-3%
CCCCN(CCCC)CCNC(=O)c1cn(C)c2ccc(S(=O)(=O)N3CCOCC3)cc2c1=O,-4%,-7%[46.1 µM],·,·,-16%,-25%[46.1 µM],-2.5%,·
Cc1cccc(NC(=O)c2cc(NC(=O)CCCC(=O)O)ccc2Cl)n1,-11%,?,10%,-7%,15%,27%,3.9%,0%
O=C(COC(=O)C1=COCCO1)Nc1c(F)cccc1F,·,5%[46.1 µM],-14%,·,-1%,25%,·,-5%
C=CCn1c(=O)c(C(=O)NCc2ccc3c(c2)OCO3)c(O)c2ccccc21,·,?,1%,7%,-9%,?,·,14%
O=C(c1ccccc1)N1CCN(c2ccc([N+](=O)[O-])cc2-n2cccc2)CC1,·,·,19%,-2%,?,·,·,-3%
COc1ccc(/C=C/C(=O)OCCCN(C)C)cc1,·,2%[46.1 µM],1%,5%,2%,5%,·,0%
O=C(Nc1nccs1)c1cccc(NC(=O)C(F)(F)F)c1,·,·,9%,-4%,31%[activator],·,·,-1%
O=C(Oc1cccc2c(OC(=O)N3CCOCC3)cccc12)N1CCOCC1,7%,-21%,3%,?,8%,8%,-2.2%,5%
O=C(NCC1CCCCC1)c1cccc([N+](=O)[O-])c1,·,2%[46.1 µM],13%,-18%,-10%,9%[46.1 µM],·,-3%
COc1cc2c(=O)n(Cc3ccccc3)c(=O)n(CC(=O)C(C)(C)C)c2cc1OC,·,·,3%,13%&0%,-23%,·,·,3%
Cc1cccc(NC(=O)Cn2c(=O)n(CC3CCC(C(=O)NCCc4ccccc4)CC3)c(=O)c3ccccc32)c1C (stereo not given),-8%,-25%[46.1 µM],·,·,2%,13%[46.1 µM],-1.4%,·
Cc1ccc(CNC(=O)c2ccc(Nc3nc4ccccc4n4nnnc34)cc2)cc1,-12%,?,·,·,25%,?,-0.9%,·
CC(=O)Nc1cccc(NC(=O)c2cc(-c3cccnc3)nc3ccc(Cl)cc23)c1,·,?,5%,2%,?,?,·,1%
Cc1cccc(NC(=O)CN2CCN(CC(=O)Nc3ccc(-c4ccccc4)cc3)CC2)c1C,·,?,-7%,3%,5%,?,·,3%
COc1ccc(NC(=O)c2ccc(-c3ccccc3)cc2)cc1NS(=O)(=O)c1ccc(F)cc1,?,?,0%,7%,?,?,-3.1%,-7%
COc1ccc(S(=O)(=O)Nc2cc3[nH]c(=O)oc3cc2C)cc1,·,·,3%,7%,6%,·,·,0%
COc1ccc(OC)c(CNC(=O)c2ccccc2NC(=O)c2nsc3ccccc23)c1,-7%,·,·,·,-23%,1%[46.1 µM],3.7%,·
O=c1c2ccccc2ncn1-c1ccc([N+](=O)[O-])c(C(F)(F)F)c1,5%,-16%,3%,14%,-19%,-3%,-2.1%,2%
COc1ccc(N(CC(=O)NCc2ccccc2C)S(=O)(=O)c2ccccc2[N+](=O)[O-])c(OC)c1,·,?,9%,16%,22%,?,·,-1%
CSc1sc(C(=O)NNC(C)=O)c2c1C1(CCC2)SCCS1,·,·,-3%,-3%,?,·,·,0%
COc1ccc(OC)c(C2CC(=O)NC(SC)=C2C#N)c1 (stereo not given),-3%,·,5%,5%,-17%,·,1.4%,-1%
COc1cccc(C2c3[nH]c4ccccc4c3C[C@H]3C(=O)N(c4ccccc4C(=O)NCCCN4CCOCC4)C(=O)N23)c1 (stereo not given in full),·,·,-4%,-11%,-21%,·,·,6%
CCC1(c2ccc(F)cc2)NC(=O)N(CC(=O)N(CCC#N)c2ccccc2)C1=O (stereo not given),·,8%[46.1 µM],-8%,4%,2%,·,·,·
COc1ccc(C(=O)COC(=O)c2ccn(C)n2)cc1,·,?,-16%,-4%,58%[activator],?,·,-3%
Cc1ccc(C(C)C)c(OCC(=O)NCC2(N(C)C)CCCCC2)c1,2%,?,·,·,-17%,-4%[46.1 µM],0.7%,·
O=C(Nc1ccc2c(c1)OCO2)C1CCN(C(=O)c2ccc(Br)cc2)CC1,·,?,-6%,·,36%[activator],5%,·,0%
Cc1ccc(C)c(NC(=S)N/N=C2/CCCCc3ccccc32)c1,?,?,-13%,-11%,0%,?,-3.3%,?
COC(=O)c1ccc(/C(O)=C(\C#N)c2nc3ccccc3s2)cc1,16%,?,-13%,-54%,57%[activator],-29%,-9.6%,-8%
CCOc1ccc(C(=O)Nc2ccc3nn(-c4ccc(OC)c(Cl)c4)nc3c2)cc1,-4%,·,·,·,-10%,7%[46.1 µM],1.9%,·
CCc1ccc(S(=O)(=O)/N=C2\C=C(NS(=O)(=O)c3ccccc3)C(=O)c3ccccc32)cc1,·,·,-18%,-5%,71%[activator],·,·,-8%
CCCCC(=O)Nc1ccc2c(c1)oc1ccccc12,-5%,-1%,-6%,6%,60%[activator],?,-3.4%,-46%
CC(CCc1ccccc1)NC(=O)c1ccc(C(=O)NC(C)CCc2ccccc2)cc1 (stereo not given),25µM*,?,15%,6%,-30%,?,1.0%,-8%
COc1ccc(-c2nnc(-c3cccs3)o2)cc1OC,10%,-27%,-6%,-31%,58%[activator],0%,4.0%,-13%
CCOC(=O)c1c(C)n(C)c2ccc(OC(C)C(=O)OC)cc12 (stereo not given),?,10%,5%,-8%,-20%,-1%,-2.1%,-7%
CCCC(=O)N1CCCC(C(=O)c2ccc(OC)c(OC)c2)C1 (stereo not given),·,-13%[46.1 µM],-1%,24%,6%,27%[46.1 µM],·,0%
Cc1c(Br)c([N+](=O)[O-])nn1C(C)C(=O)Nc1ccc2c(c1)OCO2 (stereo not given),-15%,10%,-10%,1%,·,1%,1.4%,1%
Cc1cc(C)c(S(=O)(=O)N2CCCCC2)c(C)c1N(C)S(=O)(=O)c1ccc(Cl)cc1,-21%,?,7%,9%,-22%,?,0.4%,-3%
CN(C)c1cccc(C(=O)N2CCC(n3nccc3NC(=O)C3CCOC3)CC2)c1 (stereo not given),·,21%[46.1 µM],6%,8%,-8%,?,·,2%
Cc1cc(F)ccc1Oc1cc(NN2CCCCC2)c([N+](=O)[O-])cc1[N+](=O)[O-],·,·,4%,1%,-19%,·,·,6%
Oc1ccccc1N1CCN(Cc2ncc(-c3ccccc3)o2)CC1,·,?,15%,-3%,19%,-27%,·,-2%
O=C(CSc1nc2c(oc3ccccc32)c(=O)n1Cc1ccco1)Nc1cccc(Cl)c1,2%,?,·,·,-19%,·,-0.5%,·
CCCN(CC1CC1)C(=O)CCc1nnc(CCc2c[nH]c3ccccc23)o1,·,·,-9%,-4%,-1%,·,·,0%
Cn1nc(C(=O)Nc2cc(F)ccc2F)c2c1-c1ccccc1SC2,16%,-9%[46.1 µM],·,·,25%,-3%[46.1 µM],-4.6%,·
Cc1c(C2(c3c(C)n(C)n(-c4ccccc4)c3=O)C(=O)Nc3ccc(F)cc32)c(=O)n(-c2ccccc2)n1C,4%,-8%,13%,19%,-17%,6%,1.5%,4%
Cc1ccc(NC(=O)Cn2c(=O)n(Cc3ccc(F)cc3)c(=O)c3cccnc32)cc1C,-3%,9%[46.1 µM],·,·,-23%,·,-0.5%,·
CCOC(=O)N1C2=NC(C(=O)OC)=C(C(=O)OC)[C@@H]3Nc4ccccc4[C@]23C[C@H]1C(=O)OC,·,?,5%,2%,-1%,?,·,0%
CCC(=O)Nc1ccc(S(=O)(=O)N2CCN(c3ccc(F)cc3)CC2)cc1,-4%,-4%,1%,8%,·,-5%,-3.4%,-7%
Cc1cccc(NC(=O)CN2CCc3cc4c(cc3C2C)OCCCO4)c1 (stereo not given),·,?,-14%,-15%,?,?,·,-2%
N#CC1=CN(Cc2ccccc2)C=C(/C=N/Nc2ccccc2)C1,·,?,60%,·,6%,-21%,·,0%
COCC(C)Nc1ncnc2c1cnn2-c1ccc(C)c(C)c1 (stereo not given),6%,·,·,·,-1%,1%[46.1 µM],-0.5%,·
COc1ccccc1NC(=O)Nc1ccc(-n2ccc(C(F)(F)F)n2)cc1,·,?,16%,-2%,-1%,?,·,-1%
COc1ccc(-c2cc(C(=O)N(C)CC(=O)Nc3cccc(F)c3)c3ccccc3n2)cc1,·,?,4%,·,-11%,18%,·,-6%
Cc1cccc(C)c1OCc1nnc(SCC(=O)Nc2ccc(N3CCOCC3)cc2)o1,·,-24%[46.1 µM],-6%,-8%,3%,·,·,0%

# Source: PubChem (National Center for Advancing Translational Sciences (NCATS))
